Assay outcomes (PubChem BioAssay)
BJeLR viability = kills HRASV12-expressing BJeLR cells | BJeLR (HRASV12) viability, CellTiter-Glo ATP luminescence, 48 h; reference of the scale not given here | 300,000 tested, 0.17% active | inhibition, % (test concentration not listed);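 active = replicate mean above 50%; inconclusive = above 50% but judged a plate artefact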;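 note: 50 nL library stock added to about 25 µL; numbers are from one replicate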
ugtP null kill = compounds lethal to S. aureus RN4220 ugtP deletion mutant; OD600 growth, 16 h; some inactives read as strong as hits; growth inhibition, % (concentration not given with the values); 330,000 tested, 0.54% active; AID 1259309;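 active = z-score under -3 and OD600 up to 0.15 on both plates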;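 note: plate controls were untreated wells for no effect and antibiotic for full effect; wells of about 80 µL received 100 nL stock; the first replicate is given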
Bead autofluor = flagged as autofluorescent in microsphere protease counterscreen; compound autofluorescence counterscreen, microsphere flow cytometry; hits give high values; AID 624483; fluorescence intensity (test concentration not listed); 360,000 tested, 3.1% active;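 active = at least 3 SD above the mean of all compounds, about 16000 in these data; inconclusive = too few beads counted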;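 note: 100 nL of 1 mM stock went into each well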
Mtb hypoxia inh = reduces hypoxia-regulated biosensor signal in M. tuberculosis; M. tuberculosis hypoxia-regulated fluorescent reporter, fluorescence; 300,000 tested, 0.1% active; AID 1159583; fluorescence inhibition, % (test concentration not listed);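 active = 35 to 45% if threefold the growth effect, above 45% if 1.5-fold the growth effect; inactive = the rest, general growth blockers included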;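 note: wells of about 50 µL received 100 nL stock; 0% = vehicle wells and 100% = reference inhibitor wells; whole bacteria with a GFP reporter of the hypoxia response; strong numbers were not always called active; many hits fall short of the cut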
Sa RN4220 lethal = kills Staphylococcus aureus RN4220; inhibition, % (no concentration beside the values); AID 1259311; 330,000 tested, 0.33% active; S. aureus RN4220 growth, OD600, 16 h;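 active = z-score of -3 or lower and OD600 up to 0.18 on both plates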;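 note: plate controls were untreated cells for no effect and reference antibiotic for full effect; stock transfer was 100 nL into about 80 µL; one replicate is shown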
PrP UTR inh = inhibition of PrP 5' UTR reporter expression; cell-based PrP 5' UTR mRNA reporter, plate reader; inhibition, % (no concentration beside the values); 340,000 tested, 0.35% active;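 active = every replicate at 50% or more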;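 note: 0 = median of the neutral control wells; tested in H4 reporter cells; numbers are from one replicate; inactives centre near -14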
Mtb hypoxia inh growth = recorded beside Mtb hypoxia inh, whose call it bears; growth inhibition, %; measured here: M. tuberculosis growth (absorbance);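 0% = vehicle and 100% = reference antibiotic; read after six days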
Active calls of the source: *; ? = inconclusive; . = not tested or not shown.

Screens in order – BJeLR viability	Bead autofluor	Mtb hypoxia inh growth	ugtP null kill	Sa RN4220 lethal	PrP UTR inh	Mtb hypoxia inh
> Cc1cccc(NC(=O)c2ccccc2NC(=O)c2ccccc2)n1
→ -1	5190	5	3	1.3	-7	18
> CC1=C2[C@H]3OC(=O)[C@@H](C)[C@@H]3CC[C@@]2(C)C=CC1=O
→ .	5581	.	-8	0.1	-18	.
> COc1ccc(N/C=C2\C(=O)c3c(sc(C)c3C)N(C)S2(=O)=O)cc1
→ 7	3710	-4	-3	1.9	-15	-3
> Nc1ccc(S(=O)(=O)C(F)(F)F)cc1N
→ 3	3407	8	4	-12	-41	1
> CCCCn1c(N)c(N(CCC(C)C)C(=O)C2CC(=O)N(c3ccccc3OCC)C2)c(=O)[nH]c1=O (configuration not stated)
→ -4	?	-8	1	1.2	-12	-5
> O=C(ONC(=O)C1CCCCC1C(=O)NOC(=O)c1ccccc1)c1ccccc1 (configuration not stated)
→ .	3707	8	5	8.1	-19	7
> O=C(COC(=O)c1cccc(O)c1)NC(=O)Cc1ccccc1
→ -4	5283	2	4	0.8	-22	5
> O=C(CC1NC(=O)NC1=O)Nc1ccc(Cl)cc1 (configuration not stated)
→ 1	?	12	-7	2.4	-28	5
> CCCN1CCC(=O)N([C@H](CSc2ccc(OC)cc2)c2ccccc2)CC1
→ 5	4532	.	.	.	-20	.
> CC(CNC(=O)c1cccc(Br)c1)n1cncn1 (configuration not stated)
→ -4	4066	1	-2	2.7	-11	6
> CCN(CC)c1ccc(NC(=O)CCS(=O)(=O)c2cccc3nsnc23)c(C)c1
→ 11	4092	9	4	3.7	-25	13
> O=C1NC(=O)C(Cc2cccs2)C(=O)N1
→ -1	10503	9	0	6.9	-20	10
> CC(=O)c1sc(N/N=C/c2cccc(O)c2)nc1C
→ 6	5715	.	.	.	-17	.
> CCOC(=O)N1CCN(C(=O)C(=O)c2cn(CC(=O)N3CCCCCC3)c3ccccc23)CC1
→ 2	8734	5	12	5.2	-6	1
> O=C(CCC(=O)N1CCCC(Nc2ccccc2)C1)c1ccc(F)cc1 (configuration not stated)
→ -5	5346	-4	-5	2.0	-13	-1
> CC(=O)N1CCOc2ccc(S(=O)(=O)N3CCC(C(=O)Nc4cc(C)cc(C)c4)CC3)cc21
→ 6	5559	5	6	0.5	-20	8
> CCN1C(=O)[C@@H]2[C@@H](c3ccc(-c4ccc5c(c4)OCO5)c(OC)c3)N3CCCC[C@@]3(C(=O)OC)[C@@H]2C1=O
→ -1	3924	.	.	.	-3	.
> O=C(NCc1ccc(Cl)cc1)C(=O)N/N=C/c1ccc(Br)cc1
→ -2	4882	.	.	.	-7	.
> Cc1cccc(C)c1N1CCN(S(=O)(=O)N2CCCCC2)CC1
→ 1	3489	5	4	6.4	-34	6
> C=CCNc1nc2ccccc2nc1NS(=O)(=O)c1cccc(C)c1
→ 4	3893	17	-6	7.6	-15	5
> c1ccc(Cc2noc(CN3CCN(C4CCc5ccccc5C4)CC3)n2)cc1 (configuration not stated)
→ -25	4013	7	2	6.9	-11	14
> CCOC(=O)c1c(/N=C/c2c(O)n(-c3ccc(F)cc3)c(=S)[nH]c2=O)sc2c1CCCC2
→ 15	11434	6	1	1.8	-12	1
> CCOC(=O)c1ccc(NC(=S)NCc2cccnc2)cc1
→ .	4405	3	-3	5.1	-33	0
> O=C(CCl)N1CCN(C(=O)C2COc3ccccc3O2)CC1 (configuration not stated)
→ .	3809	28	-3	0.9	9	7
> COc1cc(NC(=O)CN2CCN(S(=O)(=O)/C=C/c3ccccc3)CC2)cc(OC)c1OC
→ .	8270	0	0	2.7	-28	5
> CCN(CC)S(=O)(=O)c1ccc(Cl)c(C(=O)NCc2ccccc2Cl)c1
→ 4	3886	.	3	-0.7	-2	.
> CC(C)N(Cc1ccccc1)C(=O)CN1C(=O)c2ccccc2C1=O
→ -7	4105	8	-4	5.0	-44	-11
> COc1ccc(C(=O)N/N=C(\C)CC(=O)Nc2ccc(Cl)cn2)cc1
→ -2	6035	.	.	.	-23	.
> Cc1ccc(-n2cnc3sc(C)c(C)c3c2=O)cc1
→ 7	4340	4	2	-4.9	-92	3
> OCc1cn(-c2ccccc2)nc1-c1ccc2c(c1)OCCO2
→ 10	4778	.	-3	-0.7	-90	.
> C#CC(CC)(CC)NC(=O)NC1CCCCC1
→ -4	2576	-15	3	1.4	-8	-16
> Cc1cccc2c1cnn2C(=O)Nc1ccccc1Br
→ -8	3933	2	2	0.0	-76	9
> O=C(CN1CCCC1)N1CCCC(c2ccc(F)cc2)c2ccc(F)cc21 (configuration not stated)
→ -13	2655	0	4	4.9	-9	0
> O=S(=O)(Nc1ccc(C(F)(F)F)cc1)c1cccs1
→ 2	5701	-2	-2	3.3	-11	8
> CC1CCN(Cc2c(C(=O)NN=Cc3cccc(C(F)(F)F)c3)nnn2-c2nonc2N)CC1
→ .	.	3	-8	4.8	.	0
> O=C(NCCNc1ccnc2cc(Cl)ccc12)c1ccccc1F
→ 8	3598	9	1	3.4	-11	3
> NC(=O)C1=CC(c2ccccc2)CC(OCCCCO)O1 (configuration not stated)
→ .	.	1	4	0.2	.	7
> c1ccc(CNc2nc3ccccc3n3cnnc23)nc1
→ -2	4589	-1	13	4.9	-14	-2
> COc1ccc(NC(=O)c2cn(CCC#N)nc2-c2cc3ccccc3o2)cc1
→ 4	4418	-4	0	1.2	-9	3
> Cc1ccc(-c2csc(N(CCO)CCCn3c(C(F)(F)F)nc4ccccc43)n2)cc1
→ 3	3738	-15	-2	-8.4	1	0

Reprinted at random: 2 records from the list.
Screens in order – BJeLR viability	Bead autofluor	Mtb hypoxia inh growth	ugtP null kill	Sa RN4220 lethal	PrP UTR inh	Mtb hypoxia inh
> CC(C)N(Cc1ccccc1)C(=O)CN1C(=O)c2ccccc2C1=O
→ -7	4105	8	-4	5.0	-44	-11
> O=S(=O)(Nc1ccc(C(F)(F)F)cc1)c1cccs1
→ 2	5701	-2	-2	3.3	-11	8

Other records follow:
Screens in order – BJeLR viability	Bead autofluor	Mtb hypoxia inh growth	ugtP null kill	Sa RN4220 lethal	PrP UTR inh	Mtb hypoxia inh
> O=C1CCc2cc(S(=O)(=O)N3CCCC3C(=O)N3CCN(c4ccccc4F)CC3)ccc2N1 (configuration not stated)
→ .	4116	.	1	0.5	7	.
> O=C(NNC(=O)c1cccc2ccccc12)c1ccc(Br)cc1
→ .	4268	8	6	12	-36	12
> Cc1ccc(S[C@@H](CCN2CC[C@H](C(C)(C)C)CCC2=O)c2ccccc2)cc1
→ 3	3009	.	.	.	3	.
> CS(=O)(=O)Nc1ccc(C(=O)Nc2ccccc2Sc2ccccc2)cc1
→ -7	8533	8	7	0.9	-22	8
> Cc1ccc(NC(=O)CC2COc3ccccc3O2)cc1 (configuration not stated)
→ -2	3773	.	10	-6.4	-29	.
> CN(C)C=Nc1ncc(C(=O)c2ccc(Cl)cc2)s1
→ .	.	4	-3	2.8	.	4
> Cc1ccc(OCC(=O)Nc2ccc([N+](=O)[O-])cn2)cc1C
→ -4	2599	5	-4	3.7	-20	4
> CC(C(=O)NCC1CCCCC1)N(C)Cc1ccc(Br)cc1 (configuration not stated)
→ -14	3698	3	-5	-4.5	-21	-3
> Cc1c(C(=O)N2CCC[C@H]2C(N)=O)oc2c(F)cccc12
→ 8	3985	6	-3	3.8	-12	-9
> COc1ccc(C(=O)OCC(=O)c2ccc(F)cc2)cc1OC
→ .	3412	-4	-5	-1.8	-25	-2
> CCOc1ccc(CN2CCN(Cc3ccc(C)o3)CC2CCO)cc1 (configuration not stated)
→ -8	2416	6	-3	6.9	-14	16
> CC1=NNC(=O)C1CCC(=O)NN=Cc1c(Cl)cccc1Cl (configuration not stated)
→ .	.	3	5	1.5	.	9
> CCN(CC)c1ccc(N=Cc2ccc(N(CC)CC)cc2O)cc1
→ 1	22151*	.	.	.	-6	.
> CCOc1ccc(S(=O)(=O)NCc2ccc(OC)cc2)c2cccnc12
→ 9	2046	15	4	5.5	-11	5
> COc1cc(SC)ccc1C(=O)NCC1CCCCC1
→ -10	3751	9	6	0.2	-44	0
> c1ccc2sc(NC3=NCN(Cc4ccc5c(c4)OCO5)CN3)nc2c1
→ 4	10438	9	-9	5.8	-24	-5
> CCC(C)NC(=O)C1CCCN(C(=O)Nc2ccc(F)cc2)C1 (configuration not stated)
→ 1	10015	3	-12	7.3	-19	1
> N#Cc1ccccc1S(=O)(=O)N1CCN(CC(=O)Nc2ccnn2C2CCCC2)CC1
→ .	6265	5	7	6.0	-21	17
> COc1ccc(S(=O)(=O)Nc2ccccc2C(N)=O)cc1OC
→ -5	4277	4	9	9.8	-25	7
> COc1ccc(C(=O)N2CCCC(CCC(=O)N3CCN(c4ccccn4)CC3)C2)cc1 (configuration not stated)
→ 7	5868	-1	2	0.0	-7	5
> COc1ccc(/C=C/C(=O)N/C(=C\c2ccco2)C(=O)NCCc2nc3ccccc3[nH]2)cc1
→ 4	2492	10	-5	4.0	-17	-2
> CCC(=O)Nc1ccc(C(=O)N/N=C/c2c(C)[nH]c3ccccc23)cc1
→ -1	14867	.	.	.	-13	.
> CCc1nc(C)cn1S(=O)(=O)c1cc(C)c(OC)cc1C
→ 7	6679	-1	4	-1.5	-15	0
> CC(=O)NN1C(=O)c2ccccc2NC1c1ccccc1F (configuration not stated)
→ 4	4008	-1	8	3.4	-6	0
> COc1ccc(C2C=CCN(C(=O)C(Cc3ccccc3)NC(=O)OCC3c4ccccc4-c4ccccc43)CC(=O)N2Cc2ccc(F)cc2)cc1 (configuration not stated)
→ .	.	4	13	9.1	.	9
> CCc1ccc(OCCCC(=O)Nc2cccc(C(=O)O)c2)cc1
→ 3	3355	8	-7	-1.6	11	-21
> O=C(Oc1ccc(C=NNC(=O)c2ccco2)cc1)c1ccccc1
→ .	.	7	-4	-1.5	.	5
> C/C(=N\NC(=O)C1COc2ccccc2O1)c1ccc(N2CCOCC2)cc1 (configuration not stated)
→ 5	4400	.	.	.	-22	.
> O=C(CS(=O)(=O)c1ccc(Cl)c(Cl)c1)Nc1ccccc1Cl
→ -4	9434	8	-8	-0.8	-8	-7
> C(=N\n1cnnc1)/c1cccc2ccccc12
→ -7	2637	.	.	.	-6	.
> O=C(CN1C(=O)COc2ccc(S(=O)(=O)N3CCCC3)cc21)NC1CC1
→ 4	4154	18	-10	-0.6	-8	-4
> C=CCN(CC=C)Cc1c[nH]c2ccccc12
→ 4	.	1	-9	-1.3	.	-3
> CCNc1ccc(C(=O)OCC(=O)NCc2ccccc2Cl)cc1[N+](=O)[O-]
→ -8	2662	0	-2	-1.4	3	4
> COC(=O)CNC(=O)COC(=O)c1cc(SC)ccc1Cl
→ -5	4526	12	4	3.2	2	10
> Cn1cnc(C(=O)N2CCc3ccccc3C2)c1C(=O)N1CCc2ccccc2C1
→ .	3820	3	-2	2.1	-3	3
> Cn1c(=O)c2c(ncn2Cc2ccc(Cl)cc2)n(C)c1=O
→ 4	4302	-12	1	5.6	-18	1
> O=C1NCCCC1C(=O)N/N=C/c1cccc(O)c1 (configuration not stated)
→ -1	2621	.	.	.	-30	.
> Cc1nc2ccccc2nc(C)c1=NOCC(=O)N(c1ccccc1)C(C)C
→ -4	4774	-6	7	5.0	11	4
> Cn1nc(-c2ccc(Cl)cc2)c2cc(C(=O)NCc3ccco3)sc21
→ 3	5556	.	17	-0.5	-37	.
> CC(C)(C)NC(=O)N1c2ccccc2Sc2ccccc21
→ -4	3031	-5	6	4.3	-5	4
> CCOc1ccc(-c2c(C(=O)NN=Cc3cccs3)nnn2-c2nonc2N)cc1
→ .	.	2	-4	-0.5	.	3
> Cc1cc(F)c(F)c(C(=O)NC2CC2)c1Cl
→ 10	4283	3	5	2.9	-9	2
> COc1ccc(-c2ccc(NS(=O)(=O)c3cc([N+](=O)[O-])ccc3C)cc2)nn1
→ 9	4399	2	-6	1.5	-28	0
> COc1ccc(CN(C)S(=O)(=O)c2nnc(NC(=O)c3ccccc3)s2)cc1OC
→ 1	6457	5	-6	17	-5	9
> Cc1ccn2cc(C(=O)NCc3ccco3)nc2c1
→ -2	4537	2	-2	1.6	-23	9
> Cc1cccc(N2CCN(C(=O)c3ccc(NS(=O)(=O)c4ccc5[nH]c(=O)[nH]c5c4)cc3)CC2)c1C
→ -7	6242	9	2	-3.2	-28	3
> COc1ccc(NC(=O)CN(C)C(=O)c2oc3ccccc3c2C)cc1
→ 1	4413	-8	-2	-2.9	-35	-8
> O=C(C=Cc1ccc(Cl)cc1)N(Cc1ccccc1)c1ccccn1
→ .	.	3	5	-1.1	.	2
